Compound activity deposited in PubChem by several laboratories.
eIF4H FP inh = inhibitors of RNA binding by human eIF4H | eIF4H fluorescence polarization binding assay | 290,000 compounds, 0.94% hits | inhibition, % at 35 µM;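 active = 50% or more with normal probe brightness, or confirmed in later tests; inconclusive = above 50% with abnormal brightness, or retests that disagree; inactive = below 50% or failed in later tests; about a fifth of its hits are not listed in these tables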;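 note: calls also rest on retests at 20 µM and on dose response follow-up; 0% = protein and probe with vehicle and 100% = probe without protein; strong numbers were not always called active; many hits fall short of the cut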
HIV Env fusion = blocks HIV Env-driven cell-cell fusion | HeLa-JRFL Env/CEM21 cell fusion, luciferase | inhibition, % at 12.3 µM | 360,000 compounds, 1.1% hits | AID 651610;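 active = mean replicate inhibition score of at least 50 and every replicate individually at or above 50; inconclusive = only one of the two criteria met; inactive = mean below 50 and not all replicates reaching 50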;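 note: 0% = plate neutral controls and 100% = maraviroc near 300 nM; one replicate is shown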
Rce1 inh = blocks yeast Ras-converting enzyme. 290,000 compounds, 0.27% hits. yeast membranes, quenched prenylated peptide cleavage fluorescence. AID 2563. Q03530. calls only;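 active = fall in fluorescence gain of 50% or more versus controls, with final raw signal at or below 3038400; inconclusive = same 50% fall but final raw signal above 3038400; inactive = fall in fluorescence gain under 50%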;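 note: plate controls were neutral control wells for no effect and wells lacking membranes for full effect; tested at 10 µM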
Target sequence (Q03530 whole entry, looked up): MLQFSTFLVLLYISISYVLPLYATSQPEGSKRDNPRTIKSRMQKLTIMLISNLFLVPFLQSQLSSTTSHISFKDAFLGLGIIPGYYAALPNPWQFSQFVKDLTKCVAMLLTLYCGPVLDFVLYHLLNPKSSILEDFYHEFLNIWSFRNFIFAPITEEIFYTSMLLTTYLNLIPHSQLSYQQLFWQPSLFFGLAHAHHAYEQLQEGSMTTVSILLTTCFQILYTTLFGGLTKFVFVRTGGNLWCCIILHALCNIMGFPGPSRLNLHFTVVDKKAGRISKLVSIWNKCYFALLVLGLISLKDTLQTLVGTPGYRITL
UUG fidelity = yeast start codon fidelity modulation; S. cerevisiae UUG-firefly luciferase reporter, luminescence/redox ratio; activity score, % at 18.7 µM; 350,000 compounds, 0.13% hits;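 active = replicate mean at a twofold rise or more, about +100% in these data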;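 note: firefly luciferase made from a UUG start codon reports start codon fidelity; reporter light over untreated wells divided by growth signal over untreated wells; some hits fall short of that in this replicate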
CSC inhib = blocks cancer stem cells | AID 2717 | 300,000 compounds, 1.1% hits | inhibition, % at 7.5 µM | cancer stem cell-like cells viability, luminescence;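 active = mean at 75% or more and at least half the replicates too; inconclusive = mean and replicates disagree; tested in HMLE shEcad cells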;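 note: 0% = median of negative and 100% = median of positive control wells; the first replicate is given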
MT1-MMP act inh = MT1-MMP (human) activation inhibition; AID 651647; GFP/RFP ratio change, % at 20 µM; 360,000 compounds, 0.061% hits; P50281; HT1080 RFP-PRO-GFP cells, GFP/RFP ratio fluorescence, overnight; percent of plate control window, DMSO zero;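 active = GFP/RFP ratio change of at least 30% with cell ATP level not reduced by more than half and red fluorescence within 50% of control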; note: strong numbers were not always called active
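Read-out: GFP/RFP fluorescence ratio; Test system: RFP-PRO-GFP reporter HT1080 cells; Compound dosing: single-point 20 µM compound, 1% DMSO; Times: overnight compound exposure at 37 °C.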
PABP polyA inh = blocks human PABP binding to poly(A) RNA | P11940 | fluorescence polarization | inhibition, % at 35 µM | 290,000 compounds, 1% hits | AID 2014;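 active = 50% or more with normal probe brightness, or confirmed in later tests; inconclusive = above 50% with abnormal brightness, or retests that disagree; inactive = below 50% or failed in later tests; about a fifth of its hits are not listed in these tables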;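 note: calls also rest on retests at 20 µM and on dose response follow-up; controls were probe without protein and protein plus probe with vehicle; some compounds called inactive have numbers as strong as hits; many hits fall short of the cut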
Target sequence (P11940 whole entry, looked up): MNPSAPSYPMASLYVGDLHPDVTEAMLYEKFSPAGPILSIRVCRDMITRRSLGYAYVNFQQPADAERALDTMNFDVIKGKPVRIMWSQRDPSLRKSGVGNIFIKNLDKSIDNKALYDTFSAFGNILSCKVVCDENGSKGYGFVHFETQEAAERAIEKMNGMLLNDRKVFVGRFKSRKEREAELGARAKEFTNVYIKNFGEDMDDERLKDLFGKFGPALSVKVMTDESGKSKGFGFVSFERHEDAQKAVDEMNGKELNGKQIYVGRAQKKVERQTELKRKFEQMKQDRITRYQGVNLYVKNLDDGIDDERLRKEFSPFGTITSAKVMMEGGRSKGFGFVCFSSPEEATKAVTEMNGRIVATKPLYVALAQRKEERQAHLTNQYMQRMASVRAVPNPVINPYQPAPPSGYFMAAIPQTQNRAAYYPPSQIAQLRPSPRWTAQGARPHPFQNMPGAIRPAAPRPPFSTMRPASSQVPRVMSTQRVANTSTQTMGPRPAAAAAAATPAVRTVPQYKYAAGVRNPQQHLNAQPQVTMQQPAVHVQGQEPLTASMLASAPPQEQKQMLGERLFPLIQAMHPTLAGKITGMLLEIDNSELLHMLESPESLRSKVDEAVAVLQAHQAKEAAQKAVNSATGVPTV
MT1-MMP act inh RFP = recorded beside MT1-MMP act inh, whose call it bears; RFP signal change, %; measured here: RFP expression control read;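 0 = vehicle wells; hits needed this value within 50% of zero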
An asterisk follows results filed as active; i = inactive; ? = inconclusive; . = no result given. This is a random part of the collection; overall some 2.9% were active at least once.

SMILES | eIF4H FP inh | HIV Env fusion | Rce1 inh | UUG fidelity | CSC inhib | MT1-MMP act inh | MT1-MMP act inh RFP | PABP polyA inh
Cc1cc(C)c2nc(N)sc2c1 | -1 | . | i | -10 | -11 | -2 | -3 | 11
NC(=O)c1ccc(=O)n(Cc2ccc(F)c(F)c2)c1 | -4 | -18 | i | 9 | -7 | -1 | 1 | 5
O=C(COc1ccc(Cl)cc1)NCc1ccncc1 | 0 | 0 | i | -10 | -11 | 0 | 0 | 2
Cc1cc2cc(CCNC(=O)C(=O)c3c[nH]c4ccccc34)c(=O)[nH]c2cc1C | -8 | 17 | i | . | 12 | -5 | -5 | 7
COc1cccc(=O)c2c(C)oc(C)c12 | 20 | . | i | -12 | 17 | -16 | 2 | 12
O=C(Oc1c(CN2CCOCC2)cc(Cl)c2cccnc12)c1ccccc1 | 1 | -4 | i | . | 12 | -2 | 1 | 0
Cc1ccc2nc3sc(C(=O)Nc4ccc(N5CCOCC5)cc4)c(N)c3cc2c1 | 0 | . | i | . | . | . | . | -3
CCOc1cc(N2CCOCC2)c(OCC)cc1NC(=O)CN1C(=O)NC2(CCCCC2)C1=O | . | -8 | . | -11 | . | 0 | 6 | .
COc1ccccc1C(=O)n1nc(C)cc1C | -3 | . | i | -14 | 2 | 0 | 4 | 5
O=C(N/C(=C\c1cn(-c2ccccc2)nc1-c1ccccc1)C(=O)N1CCOCC1)c1ccccc1 | -5 | . | i | . | 4 | . | . | 25
O=C(Cc1ccccc1)Nc1ccccc1C(=O)N1CCCCC1 | 10 | -4 | i | -20 | -7 | 2 | 4 | 7
Oc1oc(-c2cccc3ccccc23)nc1/C=N/c1nccs1 | 0 | -1 | i | -13 | -2 | 1 | 3 | -15
O=C(CNC(=O)c1cccc(F)c1)OCCOc1cccc(Cl)c1 | . | . | i | -15 | -11 | -2 | 1 | .
O=C(/C=C/c1ccc2c(c1)OCO2)c1ccc(F)cc1 | 2 | -45 | i | 20 | 3 | 1 | -1 | -8
Cc1nc(-c2ccc(S(=O)(=O)Nc3cc(F)ccc3F)cc2)co1 | -5 | 0 | i | -4 | 15 | -2 | 0 | 6
CC(C)C[C@H](NC(=O)OCC1c2ccccc2-c2ccccc21)C(=O)O | . | -33 | . | -11 | . | -2 | 2 | .
CC(C)[C@H](NC(=O)C1CCN(C(=O)[C@H](Cc2ccccc2)NC(=O)OC(C)(C)C)CC1)C(=O)O | -4 | 1 | i | -12 | -16 | -3 | 1 | 8
C=CCNC(=O)c1ccc(Cn2cc(C(F)(F)F)ccc2=O)cc1 | -4 | 0 | i | -17 | 1 | -4 | 1 | 1
CN1CCN(c2nc3cc(N4CCOCC4)ccc3s2)CC1 | . | -9 | . | 3 | . | -3 | 0 | .
COc1ccccc1CNC(=O)c1cc2c(C)nn(Cc3ccc(F)cc3)c2s1 | -17 | . | i | -19 | -4 | -5 | -12 | -11
Cc1ccc(F)cc1NC(=O)c1sc2ncn(CC(=O)N3CCN(c4ccccn4)CC3)c(=O)c2c1C | -7 | -5 | i | -8 | -8 | 3 | 2 | 7
CCOC(=O)C1CCN(C(=O)Cn2nc(C)n3nc(-c4ccc(CC)cc4)cc3c2=O)CC1 | -8 | 7 | i | -20 | -6 | 6 | -10 | 9
CN1CCN(c2ccc(NC(=O)c3cccc(S(=O)(=O)N4CCCC4)c3)cc2)CC1 | . | 6 | . | -13 | 26 | -2 | -1 | .
CCOc1ccc(OCC(=O)NCCc2nc3ccccc3[nH]2)cc1 | 3 | -71 | . | -31 | 6 | 4 | 4 | 2
COc1ccccc1OCCNC(=O)c1ccc2c(c1)OCCO2 | . | -58 | i | -23 | -9 | -1 | 1 | .

Arranged by value in HIV Env fusion (largest number first): three of the compounds above
compound | HIV Env fusion
C=CCNC(=O)c1ccc(Cn2cc(C(F)(F)F)ccc2=O)cc1 | 0
Oc1oc(-c2cccc3ccccc23)nc1/C=N/c1nccs1 | -1
NC(=O)c1ccc(=O)n(Cc2ccc(F)c(F)c2)c1 | -18

Continued.
SMILES | eIF4H FP inh | HIV Env fusion | Rce1 inh | UUG fidelity | CSC inhib | MT1-MMP act inh | MT1-MMP act inh RFP | PABP polyA inh
CCC(C)NC(=O)C1CCC(=O)N(c2ccc3c(c2)OCO3)C1c1ccc(OC)cc1 (centres undefined) | -9 | -3 | i | -8 | 12 | 2 | 7 | -18
Cc1ccc(-n2[nH]c(C)c(C=Nc3ccc(Br)cn3)c2=O)cc1 | 0 | 2 | i | -10 | 20 | 1 | 4 | 3
CC(C)c1ccc(OCC(=O)NNC(=O)c2cnccn2)cc1 | 14 | 18 | i | . | 2 | 3 | 6 | 1
Cc1cc(C)cc(CC(=O)N2CCC2(C)C(=O)NS(=O)(=O)c2ccccc2Cl)c1 (centres undefined) | . | -16 | . | -5 | . | 1 | 5 | .
CCCCCCC(=O)Nc1nnc(CC)s1 | 2 | -130 | i | -14 | -19 | 1 | 2 | 0
CC1CCCCN1S(=O)(=O)Cc1ccccc1Cl (centres undefined) | -9 | -109 | i | -10 | -25 | 2 | -1 | -6
NC(=O)c1c(NC(=O)CN2CCOCC2)sc2c1CCC2 | 6 | . | i | 4 | 0 | 1 | 4 | -1
N#Cc1ccc(OCC(O)CS(=O)(=O)c2ccc(F)cc2)cc1 (centres undefined) | -3 | 8 | i | -2 | -14 | -2 | 2 | 9
CCOc1ccc(NC(=O)C23CC4CC(C2)CC(c2ccccc2)(C4)C3)cc1 | -1 | . | i | -14 | 35 | -12 | -14 | -6
C=C(C)C1CC=C(C)/C(=N/NC(=O)CNc2ccc(C)cc2C)C1 (centres undefined) | -1 | 1 | i | . | -1 | -3 | -1 | -1
CC(=O)Nc1ccc(Nc2nc(C)c([N+](=O)[O-])c(Nc3ccccc3)n2)cc1 | -12 | 14 | i | . | 15 | -8 | -21 | 3
COc1ccc(S(=O)(=O)N2CCC[C@H]2C(=O)NC2=NCCS2)cc1 | -8 | -69 | i | -6 | -10 | 1 | 3 | -7
Cc1sc(N)nc1-c1ccccc1 | -3 | 18 | i | -14 | -17 | -5 | -1 | 4
CC(C)(O)C#Cc1ccc(C(=O)N2CCC(C(N)=O)(N3CCCCC3)CC2)o1 | 9 | 0 | i | 14 | . | -1 | -1 | -1
O=C(Nc1cc(Sc2ccccn2)cc([N+](=O)[O-])c1)c1ccc([N+](=O)[O-])cc1 | 4 | . | i | 36 | 6 | -9 | -29 | -7
CCC(NS(=O)(=O)c1ccc(C)cc1)C(=O)O (centres undefined) | -5 | -4 | i | 3 | -2 | 5 | 8 | -5
Cc1cc(C)nc(SCC(=O)c2ccc(C)c(C)c2)n1 | -1 | -26 | i | -12 | 4 | 3 | -2 | -3
CN(CCNC(=O)c1cn(C)c2ccc(S(=O)(=O)N(C)C)cc2c1=O)CCc1ccccc1 | 0 | 0 | i | -8 | -9 | -1 | -1 | -4
COc1cccc(C(=O)Nn2cnnc2)c1 | -7 | -13 | i | . | 3 | 1 | 1 | -3
O=C(COc1cccnc1[N+](=O)[O-])Nc1ccc2c(c1)OCO2 | -7 | -14 | i | . | -8 | 3 | -4 | -6
CCCCN1C(=O)C(CC(=O)NC2CCCCC2)CC(C(=O)N2CCOCC2)=C1C (centres undefined) | . | ? | . | -1 | . | -1 | 7 | .
COc1cc2c(cc1OC)CN(C(=O)c1ccc(S(=O)(=O)N3CCCCC3)cc1)CC2 | -2 | -2 | i | -3 | -4 | 1 | 1 | 9
COc1ccc(CN(C)C(C)C(=O)Nc2ccc(S(=O)(=O)N3CCOCC3)cc2)c(OC)c1 (centres undefined) | -1 | -8 | i | . | . | . | . | -2
O=C(Cc1ccc2cccnc2c1)c1ccc(O)cc1O | -9 | . | i | -16 | 1 | 4 | -1 | 2
CN1CCC(=NNC(=O)c2cc(-c3ccc(Cl)cc3)n[nH]2)CC1 | -4 | 6 | i | -20 | -9 | 4 | 4 | 7
SMILES | eIF4H FP inh | HIV Env fusion | Rce1 inh | UUG fidelity | CSC inhib | MT1-MMP act inh | MT1-MMP act inh RFP | PABP polyA inh
CCn1c(SC)nnc1-c1ccc(S(=O)(=O)N2CCCCC2)cc1 | . | -65 | i | . | -6 | 3 | -3 | .
CCCCn1cnc2c(cnn2-c2ccc(Cl)cc2)c1=O | -1 | . | i | -3 | -7 | 2 | -6 | 7
Nc1c(N(Cc2ccco2)C(=O)COc2ccccc2F)c(=O)[nH]c(=O)n1Cc1ccccc1 | . | . | . | -8 | -18 | -3 | 0 | .
N#CC1=C(SCC(=O)c2ccc(Br)cc2)NC2=C(C(=O)CCC2)C1c1ccco1 (centres undefined) | 18 | . | . | -6 | 91* | -16 | -15 | 10
O=C(Nc1cccc(-c2nnc(-c3ccccc3)o2)c1)C1CCCO1 (centres undefined) | 7 | -29 | i | 0 | -5 | 5 | -5 | -1
CCN1CCCC1CNC(=O)c1ccc2c(c1)NC(=O)/C(=C\c1ccc(OC)c(OC)c1)S2 (centres undefined) | 2 | -3 | i | -3 | 4 | 12 | -3 | 27
Cc1ccnc(NS(=O)(=O)c2ccc(NC(=O)C34CC5CC(CC(C5)C3)C4)cc2)n1 | -1 | -13 | i | -1 | -10 | 9 | 3 | 1
COC(=O)C1CC(O)CN1C(=O)Nc1cccc(C(F)(F)F)c1 (centres undefined) | -3 | 6 | i | -14 | . | 1 | 2 | -6
CCOC(=O)c1c(NC(=O)CSc2nc3ccccc3o2)sc(C(C)=O)c1C | 6 | 11 | i | . | . | -5 | -3 | 20
O=C(COC(=O)c1ccc(Cl)nc1)Nc1c(Cl)cccc1C(F)(F)F | . | 4 | i | -11 | 12 | 1 | 3 | .
Cc1cccc(NC(=O)c2nc[nH]c2C(=O)NCCCCCNC(=O)OC(C)(C)C)c1 | . | 3 | . | 5 | 4 | 0 | -14 | .
Cc1ccc(S(=O)(=O)N2CCN(C(=O)c3c(-c4ccccc4)noc3C)CC2)cc1 | -4 | 27 | i | -1 | -6 | -5 | -3 | -6
COc1ccccc1NC(=O)CSc1nnnn1C | -2 | . | i | 3 | -26 | 2 | 2 | -2
C=CCOc1cccn2c(N(C)C(=O)c3ccc(OC)cc3)c(CC)nc12 | . | -4 | . | -12 | . | -7 | 2 | .
C=CCn1c(=O)n(CCOC)c(=O)c2sc3ccccc3c21 | -9 | 4 | i | 11 | -13 | 2 | -1 | -5
COc1cccc(NC(=O)CN(C)C(=O)c2cc(C)on2)c1 | . | -11 | i | -15 | -18 | -5 | 0 | .
Cc1ccsc1CN(C)C(=O)c1ccc(Oc2ccccc2)cc1 | -5 | 14 | i | . | 4 | -1 | -1 | 5
O=C(COc1ccc(Cl)cc1Cl)NC(=S)N1CCCc2ccccc21 | 35 | . | i | . | -3 | -1 | -5 | 41
CCn1c(=O)c2c(cnn2C)c2ccccc21 | -5 | 27 | i | 12 | -2 | -10 | -10 | -1
CNc1ccc(/C=C/C(=O)c2cccc3ccccc23)cc1[N+](=O)[O-] | 8 | -39 | i | . | 38 | 0 | -7 | -2
O=C(O)C1CCN(c2nc(-c3ccccc3)nc3c2oc2ccccc23)CC1 | 2 | . | i | -4 | 3 | 1 | -4 | 3
Cc1ccc(NC(=O)Cc2cc(C(=O)O)c3ccccc3n2)c(C)c1 | -3 | 19 | i | . | 40 | -11 | -8 | 0
COc1ccc(NC(=O)/C=C/C(=O)O)cc1Cl | -3 | . | i | -14 | -7 | 3 | 2 | 13
CC1=N/C(=C\c2ccc([N+](=O)[O-])cc2)C(=O)N1c1ccc(Br)c(C)c1 | -3 | . | i | -11 | -4 | 2 | -8 | -4
